# Screening results from PubChem.
# Sa ugtP lethal: growth inhibition of S. aureus ugtP deletion strain; growth inhibition, % (test concentration not listed); AID 1259309; S. aureus RN4220 ugtP deletion, OD600 growth, 16 h; some inactives read as strong as hits; actives 0.54% (n = 330,000);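 active means z-score under -3 and OD600 up to 0.15 on both plates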;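 further: plate controls were untreated wells for no effect and antibiotic for full effect; wells of about 80 µL received 100 nL stock; the first replicate is given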
# Sa RN4220 lethal: kills Staphylococcus aureus RN4220 | inhibition, % (concentration not given with the values) | actives 0.33% (n = 330,000) | S. aureus RN4220 growth, OD600, 16 h;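 active means z-score of -3 or lower and OD600 up to 0.18 on both plates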;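 further: plate controls were untreated cells for no effect and reference antibiotic for full effect; stock transfer was 100 nL into about 80 µL; one replicate is shown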
# Mtb hypoxia rep: reduces hypoxia-regulated biosensor signal in M. tuberculosis | M. tuberculosis hypoxia-regulated fluorescent reporter, fluorescence | fluorescence inhibition, % (test concentration not listed) | actives 0.1% (n = 300,000);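 active means 35 to 45% if threefold the growth effect, above 45% if 1.5-fold the growth effect; inactive means the rest, general growth blockers included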;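 further: wells of about 50 µL received 100 nL stock; 0% = vehicle wells and 100% = reference inhibitor wells; whole bacteria with a GFP reporter of the hypoxia response; strong numbers were not always called active; many hits fall short of the cut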
# PrP 5UTR inh: inhibition of PrP 5' UTR reporter expression; cell-based PrP 5' UTR mRNA reporter, plate reader; inhibition, % (test concentration not listed); actives 0.35% (n = 340,000); AID 488862;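 active means every replicate at 50% or more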;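 further: 0 = median of the neutral control wells; tested in H4 reporter cells; numbers are from one replicate; inactives centre near -14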
# BJeLR viability: kills HRASV12-expressing BJeLR cells; BJeLR (HRASV12) viability, CellTiter-Glo ATP luminescence, 48 h; reference of the scale not given here; inhibition, % (no concentration beside the values); actives 0.17% (n = 300,000); AID 1554;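 active means replicate mean above 50%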;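 further: 50 nL library stock added to about 25 µL; numbers are from one replicate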
# Autofluor counter: counter-screen for toxin protease inhibitors: compound fluorescence | actives 3.1% (n = 360,000) | compound autofluorescence counterscreen, microsphere flow cytometry; hits give high values | fluorescence intensity (no concentration beside the values);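 active means at least 3 SD above the mean of all compounds, about 16000 in these data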;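 further: 100 nL of 1 mM stock went into each well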
# Mtb hypoxia rep growth: further read-out of Mtb hypoxia rep, marked with its call; growth inhibition, %; measured here: M. tuberculosis growth (absorbance);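 0% = vehicle and 100% = reference antibiotic; read after six days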
# The depositor's hits bear a star; · = not tested or not shown. Rows are unselected (roughly 4% active in at least one column).
Molecule,Sa ugtP lethal,Sa RN4220 lethal,Mtb hypoxia rep,Mtb hypoxia rep growth,PrP 5UTR inh,BJeLR viability,Autofluor counter
CC1(C)Cc2c(sc3c2c(=O)n(Cc2ccccc2)c2nncn32)CO1,-1.3,-22.1,21.3,-20.6,-22.0,·,2620
O=C1CN2C(=Nc3ccc(Cl)cc3C2c2ccccc2)CN1 (stereo unspecified),3.9,-1.0,·,·,-6.3,-6.0,3713
O=C(Nc1nc2ccccc2s1)C1c2ccccc2Oc2ccccc21,·,·,·,·,-7.8,-11.7,10696
Cc1cc(C(=O)N2CCC(C(N)=O)CC2)c(C)o1,-0.7,2.4,5.7,9.0,-14.4,·,4165
Cc1cccc(C(=O)OCC(=O)NC(=O)c2ccccc2)c1O,3.1,0.4,0.3,-1.0,-13.9,-6.8,5425
Cc1ccc(C(=O)N2CC(C)CC(C)C2)cc1S(=O)(=O)N1CCCCC1 (stereo unspecified),-3.8,-0.6,-0.4,4.8,-18.6,·,3735
CC1(C)CC(=O)C2=C(C1)OC(=O)CC2c1cccs1 (stereo unspecified),1.5,1.6,-1.1,6.2,-12.0,7.8,5669
CC1(C)Cc2nc(Cl)c(C(=O)O)cc2CO1,-4.1,9.2,3.3,-1.5,-0.5,-2.7,4222
Cc1ccc(S(=O)(=O)N(C)Cc2ccccc2)cc1C(=O)N1CCCCC1,1.3,-2.1,8.4,4.9,-0.1,5.7,4363
COc1ccc(C(=O)COC(=O)Cc2n[nH]c(=O)c3ccccc23)c(OC)c1,4.0,3.2,-5.4,-8.4,-6.2,2.7,4660
C=CCn1c(O)c(C=NCCCn2ccnc2)c(=O)[nH]c1=O,7.5,1.5,13.2,3.5,-7.3,1.9,3827
COc1ccccc1C(=O)N1CCN(C(=O)c2ccncc2)CC1,-1.4,1.4,·,·,-20.5,2.6,5087
Cc1onc(-c2c(F)cccc2Cl)c1C(=O)Nc1ccc(Cl)c(S(=O)(=O)N(C)C)c1,0.7,-2.1,3.3,2.0,-23.8,·,8685
O=C(O)CSC1c2ccccc2C(=O)N1c1ccccc1 (stereo unspecified),1.1,0.3,2.3,4.4,8.3,-6.9,4298
Cc1cc(C(=O)NNC(=S)Nc2cccc(C(F)(F)F)c2)nn1C,-8.4,-3.9,0.7,3.9,-14.8,17.5,5391
O=C(CCC(=O)OC(C(=O)c1ccccc1)c1ccccc1)Nc1ccccc1 (stereo unspecified),-1.2,1.7,1.6,8.8,-26.7,-4.5,21923*
COc1cccc(NS(=O)(=O)c2ccc(Br)s2)c1,3.1,8.6,8.0,7.6,-2.5,0.4,8871
O=c1c2ccccc2nnn1CSc1nc2ccccc2[nH]1,1.2,2.5,-2.8,1.0,-86.7,-6.3,2710
CCOC(=O)CN1C(=O)N[C@@H](CCc2ccccc2)[C@@H](C(=O)OC)[C@H]1C,·,·,·,·,-9.7,-0.8,2976
COc1ccccc1-c1nnc(SCC(=O)Nc2nc(-c3ccccc3)cs2)n1C,-13.5,0.8,6.0,-2.0,-21.7,8.7,9577
O=C(NC1CC1)C(Cl)c1ccccc1 (stereo unspecified),2.2,2.7,11.3,7.6,-17.6,0.3,2952
C=CCNc1nc(NC(C)(C)CO)nc(OC)n1,2.1,4.0,-9.6,-16.6,-24.9,8.0,2906
CC(C)Cn1c(=O)c(C(=O)NCc2ccccn2)c(O)c2ccccc21,3.8,4.8,·,·,4.1,-0.4,3705
Cc1ccccc1N1C(=O)C(Oc2ccc(Cl)cc2)C1CNC(C)(C)C (stereo unspecified),-5.8,0.8,6.5,3.8,-10.8,11.1,10909
Cc1cccc(CNC(=O)CCc2nnc(C3CCCCC3)o2)c1,4.4,7.4,-5.7,5.2,-7.4,3.0,5066

# An excerpt of these results, field by field:
Cc1cccc(C(=O)OCC(=O)NC(=O)c2ccccc2)c1O
  Sa ugtP lethal = 3.1; Sa RN4220 lethal = 0.4; Mtb hypoxia rep = 0.3; Mtb hypoxia rep growth = -1.0; PrP 5UTR inh = -13.9; BJeLR viability = -6.8; Autofluor counter = 5425

Cc1ccc(C(=O)N2CC(C)CC(C)C2)cc1S(=O)(=O)N1CCCCC1 (stereo unspecified)
  Sa ugtP lethal = -3.8; Sa RN4220 lethal = -0.6; Mtb hypoxia rep = -0.4; Mtb hypoxia rep growth = 4.8; PrP 5UTR inh = -18.6; BJeLR viability = ·; Autofluor counter = 3735

CC1(C)CC(=O)C2=C(C1)OC(=O)CC2c1cccs1 (stereo unspecified)
  Sa ugtP lethal = 1.5; Sa RN4220 lethal = 1.6; Mtb hypoxia rep = -1.1; Mtb hypoxia rep growth = 6.2; PrP 5UTR inh = -12.0; BJeLR viability = 7.8; Autofluor counter = 5669

# Following part.
Molecule,Sa ugtP lethal,Sa RN4220 lethal,Mtb hypoxia rep,Mtb hypoxia rep growth,PrP 5UTR inh,BJeLR viability,Autofluor counter
O=C(CSc1nnc(NC(=O)C2CC(=O)N(c3ccc(F)cc3)C2)s1)NCC1CCCO1 (stereo unspecified),3.7,2.6,4.8,2.4,-1.0,2.6,6146
O=C(CCN1C(=O)/C(=C/c2ccc(F)cc2)SC1=S)NCCc1cnc[nH]1,1.4,4.5,15.8,13.6,-0.3,-10.0,5328
Cc1cc(Cl)ccc1Oc1ncnc2onc(C)c12,6.4,4.5,6.6,-0.2,-9.2,1.3,4288
O=C(c1ccc(-c2ccccc2)cc1)N1CCCC1,2.9,0.8,·,·,-39.6,-2.6,·
Cc1ccc(NC(=O)CCN2C(=O)C3CCCCC3C2=O)c(O)c1 (stereo unspecified),10.7,-0.1,7.2,6.9,-15.5,-1.0,5106
CC1(C)CC(=O)C(C=Nc2ccncc2)=C(O)C1,1.4,1.0,-4.0,-14.8,-20.9,-7.6,9855
Cc1cc(C(=O)COC(=O)Cc2n[nH]c(=O)c3ccccc23)c(C)n1CC(F)(F)F,2.0,4.7,0.3,4.9,-13.9,·,5423
Cc1ccccc1NC(=O)C(=Cc1ccc(C(=O)O)cc1)C(=O)Nc1ccccc1C,2.5,3.4,4.1,15.1,3.6,-7.9,4347
O=C1CCC(C(=O)OCC(=O)c2ccccc2)N1 (stereo unspecified),1.2,1.4,-1.4,1.1,-23.6,3.3,4635
CC(C)NC(=O)COc1ccc(/C=N/NS(=O)(=O)c2ccccc2)cc1,·,·,·,·,-15.2,2.0,3648
COc1ccc(NC(=O)COC(=O)c2cc(C)oc2C)cc1OC,3.1,7.7,9.4,2.9,-13.0,·,·
O=C(Nc1ccc(Br)cc1)c1cccc(N2C(=O)C3C4CCC(C4)C3C2=O)c1 (stereo unspecified),8.1,8.0,0.6,3.5,0.0,1.4,2024
Cn1c(N2C(=O)CC(Cc3ccccc3)C2=O)nc2ccccc21 (stereo unspecified),-8.1,-11.9,4.7,3.8,-12.9,1.3,·
O=C(CN1C(=O)c2cccc3cccc1c23)NCc1cccnc1,6.6,-1.1,·,·,-5.9,6.7,5520
CN1CCN(S(=O)(=O)c2cccc(C(=O)N(Cc3ccccc3)c3ccccc3)c2)CC1,0.0,-0.3,2.6,-2.9,11.3,5.2,4430
CCNC(=O)C1CC(=O)OC12CCCCC2 (stereo unspecified),8.1,6.5,3.7,-0.8,15.2,4.6,3035
CCC(C)c1ccc(C(C)NC(=S)NCc2ccc(F)cc2)cc1 (stereo unspecified),-28.4,-6.7,-2.1,1.0,-5.6,-9.3,4139
CCC(CC)NC(=O)c1ccc2c(c1)OCCO2,0.2,4.6,1.6,10.4,-29.4,-0.9,23941*
O=C(Nc1ccc(Br)cc1F)c1ccc2c(c1)N(Cc1ccccc1)C(=O)CS2=O (stereo unspecified),5.6,-2.5,·,·,-3.9,-11.3,6376
O=C(NCCCn1ccnc1)C(=O)NCc1ccc(Cl)cc1,9.3,0.6,·,·,-16.0,1.5,3366
O=C(CNS(=O)(=O)c1cccc(C(F)(F)F)c1)Nc1ccccc1F,10.5,7.9,9.8,7.4,-29.2,3.0,8122
CCOC(=O)N1CCN(C(=O)C(CC(C)C)NS(=O)(=O)c2ccc3c(c2)oc(=O)n3C)CC1 (stereo unspecified),6.2,3.3,12.7,13.1,-22.9,0.2,13357
COc1ccc(OC)c(CN2CCN(C(=O)c3cccc(S(=O)(=O)Nc4ccccc4OC)c3)CC2)c1,2.8,3.4,-5.8,-0.5,-11.5,-10.2,4979
CCOC(=O)c1[nH]c2ccc(OC)cc2c1NC(=S)N1CCN(c2cccc(Cl)c2)CC1,-9.4,3.5,5.5,1.4,-24.2,3.0,2189
CCOC(=O)c1c(C)[nH]c(C(=O)COC(=O)[C@H](C)N2C(=O)C3CCCCC3C2=O)c1C (stereo partly specified),2.6,3.9,3.3,8.9,-9.5,·,4303

# The results go on.
Molecule,Sa ugtP lethal,Sa RN4220 lethal,Mtb hypoxia rep,Mtb hypoxia rep growth,PrP 5UTR inh,BJeLR viability,Autofluor counter
Cc1c(C)c2ccc(OCC(=O)N3CCN(c4ccccc4)CC3)cc2oc1=O,-0.9,-1.2,-4.1,0.6,-1.3,2.7,4559
O=C(CSc1nnc(-c2cccnc2)s1)Nc1cccc(C(=O)O)c1,·,·,·,·,-9.6,9.1,2155
COc1ccc(C2(CNC(=O)C(c3ccccc3)c3ccccc3)CCOCC2)cc1OC,2.2,5.2,6.2,4.6,-53.8,-5.7,8214
Cc1cccc(NC(=O)c2cc(Cl)nc3ccccc23)c1,-3.1,0.8,1.7,6.2,-28.0,-4.2,4230
O=C(CSc1n[nH]c(=O)n1Cc1ccco1)Nc1ccccc1,-0.2,1.6,4.6,13.5,·,-10.2,·
C=C(C)C(=O)N1CC2(CC(c3cccc(NC(=O)CC(c4ccccc4)c4ccccc4)c3)=NO2)C[C@H]1C(N)=O (stereo partly specified),·,·,·,·,12.0,-2.5,2918
Cc1nc2ccccc2c(=O)n1/N=C/c1ccccc1OC(F)F,·,·,·,·,-32.6,-10.4,3362
COc1ccccc1NC(=O)C1=C(C)Nc2nc(-c3cccs3)nn2C1c1cccc(O)c1 (stereo unspecified),·,·,·,·,-24.5,-11.1,10752
CCC(NC(=O)C(C)NC)C(=O)N1CCCC1C(=O)NC1CCCc2ccccc21 (stereo unspecified),-4.3,8.2,16.2,8.2,-28.8,·,3398
COc1ccc(S(=O)(=O)N2CCCCCC2)cc1C(=O)NCCc1ccc(F)cc1,-1.0,7.4,15.7,9.0,-10.4,·,3356
CCCc1cc(=O)oc2cc(Oc3ncccn3)ccc12,-5.0,1.6,2.1,5.5,-28.0,5.1,8453
O=C(N/N=C/C=C\c1ccccc1[N+](=O)[O-])c1cc(-c2ccc3ccccc3c2)n[nH]1,·,·,·,·,-31.2,-1.5,2723
CC(/C=N/NC(=O)c1cc(-c2ccncc2)nc2ccccc12)=C\c1ccco1,·,·,·,·,49.5,13.9,16302*
O=C(N/N=C\c1cccc(Cl)c1)c1ccc(Cn2cc(Br)c([N+](=O)[O-])n2)o1,·,·,·,·,-10.9,-14.8,2434
C=CCn1c(=O)c2c(nc(-n3nc(C)cc3C)n2C)n(C)c1=O,-1.7,4.0,-13.3,-2.5,-16.8,4.1,3766
O=c1c(-c2ccc(Cl)cc2)coc2c(CN3CCCCC3)c(O)ccc12,7.4,2.7,7.1,5.5,-48.8,-20.1,3432
Cc1nc2ccccc2n1CCOc1ccc(F)cc1,4.7,5.8,3.1,-3.5,3.8,-2.1,·
COc1ccc(CCNC(=O)COc2ccc(S(=O)(=O)N3CCOCC3)cc2)cc1,10.3,3.7,7.4,4.6,-3.4,-13.3,4745
COc1ccccc1CC(=O)NNS(=O)(=O)c1cccc([N+](=O)[O-])c1,10.7,2.1,5.5,8.6,-19.4,-3.1,3707
COc1ccc(N/C=C(\C#N)S(=O)(=O)c2ccc(OC)cc2)cc1,17.0,-1.4,1.6,7.5,-2.2,-3.7,3473
O=C(O)CN1C(=O)C2C3CC(C2C1=O)C1C(c2ccc(F)cc2)c2sc(=O)[nH]c2SC31 (stereo unspecified),11.8,1.1,2.1,5.5,-9.4,-1.7,2065
COc1cc(/C=C/C(=O)OCC(=O)Nc2c(C)n(C)n(-c3ccccc3)c2=O)ccc1OCC#N,·,·,·,·,-24.5,8.4,2535
S=c1nc(-c2ccccc2)c(-c2ccccc2)n[nH]1,·,·,·,·,5.1,6.6,3044
O=C(NCCc1ccccc1)c1ccc2nc3cc(Cl)ccc3c(=O)n2c1,-0.9,-3.9,0.0,-3.0,-13.3,-6.6,4092
N#Cc1ccccc1Sc1ccccc1C(=O)OCc1nnc(-c2ccccc2)o1,38.5,44.4,·,·,-10.2,9.2,4005
